# Rango complex inh = qHTS Assay for Inhibitors of Rango (Ran-regulated importin-beta cargo) - Importin beta complex formation; AID 540263, 2011; Potency, µM (top dose mostly 92.2 µM), for the others: at the highest dose inhibition of complex formation; Rango CFP/YFP FRET sensor + importin beta, 45 min; 340,000 tested, 0.031% active; active = rising FRET ratio curve, often small or poorly fitted; inconclusive = mostly compound fluorescence or quenching in the first reads; inactive = flat curves in all reads;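 further: potency means the concentration at half of the fitted maximal effect; 0% = DMSO wells and 100% = buffer wells lacking importin beta; nearly all actives have a fitted effect of over 15% in size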
#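 Inhibition scored from the CFP 486 nm/YFP 530 nm FRET ratio 45 min after adding 0.125 microM importin beta to 50 nM Rango biosensor preincubated 5 min with compound (room temperature, PBS with DTT, Tween-20, BSA). No-importin wells as positive control.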
# GLA inh pH 4.5 = qHTS Assay for Inhibitors of Human alpha-Galactosidase at pH 4.5 | Alpha-galactosidase A (Homo sapiens), P06280 | purified enzyme, 4-MU-alpha-Gal fluorescence, pH 4.5 | activity change, negative = inhibition, % at 105 µM | 230,000 tested, under 10 active | AID 1467, 2008; inconclusive = small, poorly fitted or top-dose-only inhibition, or a rising curve; inactive = flat fitted curve, though single readings scatter; no compound was filed as active;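 further: 0% = full activity with enzyme and -100% = basal without enzyme; dose as in the result columns while the protocol names 77 µM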
# Target sequence (P06280 whole entry, looked up): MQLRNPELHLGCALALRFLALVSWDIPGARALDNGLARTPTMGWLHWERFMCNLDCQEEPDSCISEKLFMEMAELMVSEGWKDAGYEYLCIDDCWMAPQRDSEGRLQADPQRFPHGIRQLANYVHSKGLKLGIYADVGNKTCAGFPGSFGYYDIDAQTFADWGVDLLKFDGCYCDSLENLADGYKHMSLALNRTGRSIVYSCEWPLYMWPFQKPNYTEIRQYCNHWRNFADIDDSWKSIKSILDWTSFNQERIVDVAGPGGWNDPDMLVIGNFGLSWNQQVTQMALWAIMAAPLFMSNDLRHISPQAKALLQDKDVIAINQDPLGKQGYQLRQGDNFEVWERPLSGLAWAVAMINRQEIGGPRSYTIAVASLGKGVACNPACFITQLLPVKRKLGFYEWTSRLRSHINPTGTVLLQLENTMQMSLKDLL
# miR-21 reporter = qHTS Assay for Modulators of miRNAs and/orActivators of miR-21; HeLa miR-21 FLuc reporter, luciferase, 48 h; Potency, µM (titrated, usually from 38.3 µM), for inactives: at the top dose reporter change, positive = more light; AID 2288, 2010; 340,000 tested, under 10 active; active = well fitted rising curve with a large enough effect; inconclusive = small, poorly fitted or top-dose-only effect; inactive = no such curve, though single readings can be large or run the other way;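 further: % of control where 0% means no effect; miR-21 action dims this reporter so a rising signal means less miR-21 action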
#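 Using DMEM plus 10% FBS, HeLa miR-21-FLuc cells are incubated with test compounds (final up to about 40uM) for 48 hours; firefly luciferase signal is then imaged following reagent-mediated lysis.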
# Rango dissoc inh = qHTS Assay for Inhibitors of RanGTP induced Rango (Ran-regulated importin-beta cargo) - Importin beta complex dissociation; Snurportin-1 (Homo sapiens) + GTP-binding nuclear protein Ran (Homo sapiens) + Importin …; Biochemical FRET Rango-importin beta, RanGTP-induced dissociation; Potency, µM (doses to about 46.1 µM), without a hit: at the top dose activity change, negative = inhibition; 340,000 tested, 0.071% active; active means falling FRET ratio curve, often poorly fitted, with flat reads before Ran was added; inconclusive means other falling curves, or compound fluorescence or quenching; inactive means flat or rising ratio curve;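 further: potency means the concentration at half of the fitted maximal effect; % of control where 0% means no effect; nearly all actives have a fitted effect of over 45% in size; -100% = wells without RanGTP and RCC1; the record marks most hits as doubtful in a second field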
#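 Quantitative HTS using a FRET biosensor: 0.1 uM Rango, 0.25 uM importin beta, 0.6 uM Ran, 2 mM GTP, 0.2 uM RCC1 final, PBS with DTT, Tween-20 and BSA. Post-read taken 45 min after Ran addition.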
# An asterisk follows results filed as active; ? = inconclusive; . = no result given.
(1) O=C(CSc1ccc2nnc(CCNC(=O)c3ccccc3)n2n1)Nc1ccccc1
(2) CCN(CC)CC(=O)c1c[nH]c2ccccc12
(3) O=C(Cn1ccc2ccccc2c1=O)NCCC(=O)N1CCN(c2ccccc2)CC1
(4) COc1ccc(S(=O)(=O)N2CCCC2c2cccs2)cc1 (centres undefined)
(5) COC(=O)c1c(NC(NC(C)=O)C(Cl)(Cl)Cl)sc2c1CCCC2 (centres undefined)
(6) Cn1cc(CCNC(=O)CC2C(=O)NCCN2Cc2cccc(Oc3ccccc3)c2)cn1 (centres undefined)
(7) CCc1ccc(OCC(=O)NC(NC(=S)Nc2ccccc2OC)C(Cl)(Cl)Cl)cc1 (centres undefined)
(8) Cc1cccc(OCC(=O)Nc2ccc(N3CCN(S(C)(=O)=O)CC3)cc2)c1
Assay by compound,1,2,3,4,5,6,7,8
Rango complex inh,0.8%,-0.9%,-0.4%,1.5%,-9.4%,5.4%,0.1%,3.1%
GLA inh pH 4.5,11.0,-5.7,.,-1.8,5.7,3.8,0.9,-4.2
miR-21 reporter,-0.6%,-3.1%,?,-2.0%,13.1%,-3.1%,18.1%,-4.7%
Rango dissoc inh,2.8%,?,-20.7%,3.5%,1.5%,-6.1%,-5.3%,1.0%

(9) CC(NC(=O)C1CCN(S(=O)(=O)c2cccc3nonc23)CC1)c1ccccc1 (centres undefined)
(10) O=C(CNC1CCCCC1)Nc1ccc(S(=O)(=O)N2CCCCC2)cc1
(11) C/C(=N\O)C(=O)Nc1ccccc1
(12) CCOC(=O)c1sc(NC(=O)CCN2CC(C)OC(C)C2)c(C(=O)OCC)c1C (centres undefined)
(13) Nc1nncn1C(=O)c1ccccc1Cl
(14) CCc1nnc(NS(=O)(=O)c2ccc(NC(=S)NC(=O)/C=C/c3ccc([N+](=O)[O-])cc3)cc2)s1
(15) c1ccc2c(C3=NNC(=NC4CCCCC4)SC3)c[nH]c2c1
(16) CCCc1nc(SC2CCCC2)c2c(=O)n(C)c(=O)n(C)c2n1
Assay by compound,9,10,11,12,13,14,15,16
Rango complex inh,2.0%,-3.5%,6.9%,.,-5.7%,0.2%,-4.3%,?
GLA inh pH 4.5,.,.,0.0,4.3,1.7,-0.8,-2.2,-1.9
miR-21 reporter,0.6%,8.0%,-10.9%,-1.5%,-3.0%,-5.2%,-45.9%,-0.2%
Rango dissoc inh,-3.2%,19.2%,-16.1%,.,-13.4%,23.8%,-11.4%,-8.3%

(17) O=C(Nc1ccccc1)c1ccc(OC(=O)c2ccccc2)cc1
(18) O=C(CN1C(=O)S/C(=C/c2cc(Br)cs2)C1=O)N1CCOCC1
(19) O=C(NCC(=O)N(Cc1cccs1)C(C(=O)NC1CCCCC1)c1ccco1)c1cccs1 (centres undefined)
(20) COc1ccc(/C=N/NC(=O)c2[nH]c3ccc(C)cc3c2-c2ccccc2)c(C(=O)O)c1OC
(21) CCCCc1nnc(SCc2ccc(OCC)cc2)n1N
(22) O=C(CSc1nnc2c(n1)[nH]c1ccc(F)cc12)OCc1ccccc1
(23) CCCn1nnnc1NCc1ccc(Cl)cc1Cl
(24) COc1ccc(C(=O)OCC(=O)NC(=O)NC2CCCC2)c(O)c1
Assay by compound,17,18,19,20,21,22,23,24
Rango complex inh,-2.2%,1.7%,-0.1%,3.7%,-1.0%,1.4%,1.7%,6.5%
GLA inh pH 4.5,.,2.0,-7.2,.,5.0,-21.6,4.9,-2.1
miR-21 reporter,-4.6%,-0.2%,17.5%,22.3%,-5.6%,-1.7%,-1.2%,-3.0%
Rango dissoc inh,-4.8%,-1.1%,-15.5%,3.4%,24.3%,-1.5%,2.9%,0.5%

(25) Cc1ccc(S(=O)(=O)n2cccc2C)cc1
(26) Cc1ccc(C(=O)OCC(=O)NNC(=O)c2cccs2)c(O)c1
(27) O=C(O)CN(c1ccccc1)S(=O)(=O)c1cc(C(F)(F)F)cc(C(F)(F)F)c1
(28) CC(=O)c1ccc(Nc2ccc([N+](=O)[O-])c3nonc23)cc1
(29) Cn1c(=O)c2c(nc(Sc3nc4ccccc4n3CC(=O)N3CCCCC3)n2C)n(C)c1=O
(30) Cc1ccc(S(=O)(=O)N2CCOCC2)cc1C(=O)NCc1ccccc1CN1CCCC1
(31) CCCc1nnc(NC(=O)CCC(=O)Nc2ccc(Cl)cc2)s1
(32) CC(C)CCNC(=O)c1ccc2c(SCC(=O)O)c3c(nc2c1)CCC3
Assay by compound,25,26,27,28,29,30,31,32
Rango complex inh,2.5%,4.2%,0.1%,5.1%,1.3%,0.2%,0.6%,2.8%
GLA inh pH 4.5,.,.,-21.3,.,4.2,.,.,-13.7
miR-21 reporter,.,.,-3.0%,-23.4%,2.0%,.,0.9%,-8.6%
Rango dissoc inh,1.0%,15.4%,-8.8%,12.8%,2.1%,3.1%,6.2%,-4.1%

(33) O=C1c2oc3ccccc3c(=O)c2C(c2cccc(O)c2)N1CCCN1CCOCC1 (centres undefined)
(34) Cc1ccc(-c2csc(C3=C(O)CN(NC(=O)c4ccc([N+](=O)[O-])cc4)C3=N)n2)cc1
(35) CCC(=O)Nc1ccc(OCc2nc3ccccc3s2)cc1
(36) COc1ccc(C(=O)NCc2nc3ccccc3[nH]2)cc1OC
(37) COc1ccc(-c2nn(-c3ccccc3)cc2C(=O)n2nnc3ccccc32)cc1
(38) O=C1OCc2ccc(NC(=O)c3sccc3Cl)cc21
(39) O=C(Cn1cc2c(n1)CCCC2)N1CCc2ccccc21
(40) O=C1/C(=C\c2cc(Cl)c(O)c(Cl)c2)SC(=S)N1Cc1ccccc1
Assay by compound,33,34,35,36,37,38,39,40
Rango complex inh,0.3%,2.5%,1.2%,-0.5%,1.9%,-5.2%,8.3%,?
GLA inh pH 4.5,-5.9,2.2,-1.8,10.6,-1.7,4.9,14.0,.
miR-21 reporter,-1.2%,-2.2%,-37.8%,-3.5%,-6.1%,-3.1%,-15.7%,25.3%
Rango dissoc inh,0.1%,16.3%,-12.1%,-2.1%,-3.9%,2.8%,31.2%,?

(41) CN(C)Cc1ccc(F)cc1Sc1ccc(Cl)cc1Cl
(42) O=C(NCc1ccccc1C(F)(F)F)C1CC(O)CN1C(=O)Nc1ccccc1 (centres undefined)
(43) COc1cccc(C(=O)Nc2ccc(S(=O)(=O)Nc3nccc(C)n3)cc2)c1
(44) CC1CCN(C(=O)COC(=O)/C=C/c2ccco2)CC1
(45) COc1cc(C(=O)Nc2nc(C)cc(C)n2)cc(OC)c1OC
(46) CCOc1ccc(CCn2c(-c3ccco3)nc3ccccc3c2=O)cc1OCC
(47) CCOC(=O)/C(=N\Nc1ccc(Br)cc1)N1CC(C)OC(C)C1 (centres undefined)
(48) Cc1ccc2oc(C(=O)N(Cc3nccn3C)C(C)C)c(C)c2c1
Assay by compound,41,42,43,44,45,46,47,48
Rango complex inh,1.0%,2.8%,-0.7%,?,2.9%,0.6%,1.5%,-0.5%
GLA inh pH 4.5,-10.9,.,4.7,.,0.6,.,-1.4,.
miR-21 reporter,5.5%,-1.3%,-0.2%,.,-2.8%,19.2%,-8.3%,-10.9%
Rango dissoc inh,-7.4%,-10.6%,-13.9%,?,9.6%,0.4%,1.9%,-4.8%

(49) COC(=O)c1cc2c(=O)c3ccccc3oc2nc1C
(50) O=C(NC1CCCCC1)NC1C2CC3CC(C2)CC1C3 (centres undefined)
(51) O=C(NCCC1=CCCCC1)c1cc(S(=O)(=O)N2CCCCC2)ccc1Cl
(52) CC(=O)C1CCC2C3CCC4CC(OC(=O)CCC(=O)O)CCC4(C)C3C(=O)CC12C (centres undefined)
(53) CCCCc1ccc(NC(=O)OC)cc1
(54) CC1CN(CC(=O)Nc2cc(S(=O)(=O)N3CCCC3)ccc2Cl)CC(C)O1 (centres undefined)
(55) CCOC(=O)C1=C(C)N=C2SCCC(=O)N2C1c1sccc1C (centres undefined)
(56) O=[N+]([O-])c1ccc(N2CCOCC2)nc1
Assay by compound,49,50,51,52,53,54,55,56
Rango complex inh,?,-5.3%,-1.0%,-2.0%,-2.9%,-3.0%,-8.2%,4.6%
GLA inh pH 4.5,.,.,.,.,4.5,1.4,-4.5,4.7
miR-21 reporter,-32.5%,-14.2%,.,.,-33.9%,1.5%,-0.5%,-4.9%
Rango dissoc inh,-22.3%,-22.4%,-0.3%,-18.6%,3.5%,31.1%,-0.7%,1.2%

(57) COCOc1ccc(C=O)c(OCOC)c1
(58) CCN(CC)S(=O)(=O)c1ccc(NC(=O)c2cc(C(=O)OC)cc([N+](=O)[O-])c2)cc1
(59) CCCCn1nnnc1SCC(=O)NCc1ccco1
(60) C=CCNC(=S)N/N=C/c1ccc(-c2ccc(Cl)cc2Cl)o1
(61) NC(=O)C1CCN(C(=O)COCc2cc(-c3ccc4c(c3)OCO4)on2)CC1
(62) Cc1cc(C)cc(C(=O)N2CCCCC2)c1
(63) Cn1c(-n2c(-c3ccco3)nc3ccccc3c2=O)nc2ccccc21
(64) CSc1nnc(COc2ccc(C)cc2)n1N
Assay by compound,57,58,59,60,61,62,63,64
Rango complex inh,3.7%,0.2%,-1.8%,?,3.7%,2.2%,-0.9%,1.9%
GLA inh pH 4.5,.,4.6,-10.2,.,.,.,0.2,3.1
miR-21 reporter,.,1.4%,-1.0%,.,-28.5%,.,5.5%,-9.3%
Rango dissoc inh,0.9%,19.7%,-28.3%,-18.4%,-9.1%,-5.6%,0.4%,1.0%

(65) Cc1cc(C(=O)N(C)CC(=O)Nc2ccc(F)c(F)c2F)no1
(66) Cc1ccc[n+](CC(=O)c2ccc(-c3ccccc3)cc2)c1
(67) Cc1ccccc1C(=O)Nc1ccnc(-c2ccncc2)n1
(68) CSc1nc(-c2ccc(Cl)cc2Cl)[nH]c(=O)c1C#N
(69) CC(C)(C)Cc1cc(N)on1
(70) O=C(CCc1ccccc1)NNC(=O)CCc1ccccc1
(71) Cc1ccc(C2(c3ccccc3)NC(=O)N(CC(=O)NC3CCS(=O)(=O)C3)C2=O)cc1C (centres undefined)
(72) Cc1cc(NC(=O)CSc2nc3ccccc3n2CC(=O)N2CCC(C)CC2)no1
(73) COc1ccc2c(CC(=O)N[C@@H](Cc3ccccc3)C(=O)O)cc(=O)oc2c1
(74) N#C/C(=C/c1ccc(Br)o1)C(N)=O
Assay by compound,65,66,67,68,69,70,71,72,73,74
Rango complex inh,-1.6%,-1.5%,5.0%,-1.4%,-2.2%,2.8%,-1.1%,0.0%,4.6%,-4.4%
GLA inh pH 4.5,.,0.4,-4.2,3.0,?,.,.,-1.5,.,0.8
miR-21 reporter,-2.3%,0.5%,-0.1%,?,12.5%,0.3%,.,0.4%,-0.4%,-0.1%
Rango dissoc inh,11.3%,-7.2%,0.0%,-0.8%,-11.6%,7.4%,-9.9%,2.4%,-7.2%,0.6%

# Screens from PubChem BioAssay.

# The list is partial; rates above refer to the full screens.
